Assay outcomes from PubChem.
GSK3beta inhib: human GSK3beta kinase inhibition; GST-GSK3beta kinase, ADP-Glo luminescence, 60 min; active compounds read low; P49841; activity score (negative = inhibition), % at 10 µM; hit rate 0.038% among 300,000;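 active = more than half of replicate wells score below -50%, meaning over 50% inhibition versus plate controls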;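 also: 0% = median DMSO wells and -100% = median GW8510 positive control wells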
Target sequence (P49841 whole entry, looked up): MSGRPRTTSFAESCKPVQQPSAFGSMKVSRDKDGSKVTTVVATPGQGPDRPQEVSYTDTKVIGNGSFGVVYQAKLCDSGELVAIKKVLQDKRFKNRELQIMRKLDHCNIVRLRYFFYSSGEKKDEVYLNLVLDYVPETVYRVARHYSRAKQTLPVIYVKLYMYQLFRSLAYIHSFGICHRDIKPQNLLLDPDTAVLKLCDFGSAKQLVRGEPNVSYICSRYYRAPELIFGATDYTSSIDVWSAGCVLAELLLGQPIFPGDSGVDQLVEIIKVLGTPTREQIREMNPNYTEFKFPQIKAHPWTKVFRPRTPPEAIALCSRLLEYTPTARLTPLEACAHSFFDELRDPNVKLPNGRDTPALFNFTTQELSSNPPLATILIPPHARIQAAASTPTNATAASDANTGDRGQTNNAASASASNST
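Assay system: GST-fused GSK3beta enzyme, cell-free / Medium: Tris pH 7.5 buffer with MgCl2, DTT, BSA, heparin / Also added: peptide substrate plus 25 µM ATP (final) / Compound: 10 µM single point / Timing: kinase reaction with compound 60 min at room temperature / Detection: ADP-Glo luminescence / Benchmarks: DMSO neutral wells and GW8510 at 20 µM as positive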
DYRK1A inh: blocks rat Dyrk1A kinase activity | inhibition, % at 12.5 µM | Q63470 | AID 504441 | hit rate 0.43% among 310,000 | ADP-Glo luminescence, NFATc1 peptide; in the data active = inhibition above about 50%;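 also: plate controls were vehicle with enzyme for no effect and no enzyme for full effect; many of its hits are not listed in these tables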
PolyA inhibitor: inhibitors of polyadenylation in S. cerevisiae; AID 1875; calls only at 12 µM; hit rate 0.02% among 300,000; S. cerevisiae SKY197-pL101 polyadenylation reporter, beta-gal luminescence; efflux-impaired pdr1/pdr3 knockout yeast; score 100 = 6 SD above DMSO;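 active = lowest replicate activity score at least 50, where 100 means six control SD above control mean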;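 also: yeast exposed to compound for 9 h at 30 °C; higher score means more reporter readthrough which indicates perturbed polyadenylation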
KCNK3 inh: human KCNK3 channel inhibition, primary screen | O14649 | B-score at 10 µM | hit rate 0.84% among 340,000 | AID 602410 | CHO-KCNK3 thallium flux, FluxOR fluorescence; active compounds read low;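 active = B-score under library mean minus 4 SD, starting fluorescence ratio at most library mean plus 5 SD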;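 also: more negative B-score means stronger inhibition of thallium flux through KCNK3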
Target sequence (O14649 whole entry, looked up): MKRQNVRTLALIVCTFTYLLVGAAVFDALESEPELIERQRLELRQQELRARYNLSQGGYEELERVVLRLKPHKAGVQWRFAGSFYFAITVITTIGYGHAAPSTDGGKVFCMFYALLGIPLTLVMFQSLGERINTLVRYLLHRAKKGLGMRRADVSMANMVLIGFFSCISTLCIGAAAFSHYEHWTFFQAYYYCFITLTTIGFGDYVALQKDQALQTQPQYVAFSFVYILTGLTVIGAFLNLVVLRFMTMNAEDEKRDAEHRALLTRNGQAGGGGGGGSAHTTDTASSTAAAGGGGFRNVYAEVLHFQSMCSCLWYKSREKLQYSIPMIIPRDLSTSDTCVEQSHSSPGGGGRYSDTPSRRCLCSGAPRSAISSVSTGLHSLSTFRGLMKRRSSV
RGS4 block: inhibitors of human RGS4. P49798. HEK293 M3R/RGS4 inducible, Fluo-4 calcium flux; active compounds read high; triggered by carbachol at its EC20. B-score at 10 µM. hit rate 0.45% among 310,000. AID 463165;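 active = B-score, a plate-corrected calcium signal, over three deviations above library mean, with baseline fluorescence within five deviations of library mean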;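 also: RGS4 expression induced by doxycycline in cells with stable M3 receptor; B-score is computed from the integrated fluorescence ratio over baseline after carbachol; higher B-score means a larger calcium signal and so more RGS4 inhibition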
KCNQ1 act: human KCNQ1 channel potentiation or activation; B-score at 10 µM; AID 2648; CHO-K1 KCNQ1, thallium flux FluxOR fluorescence; active compounds read high; P51787; hit rate 0.35% among 310,000;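 active = fluorescence ratio B-score, a plate-corrected score, at least three library SD, with initial intensity B-score within 5 SD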
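System: Stable KCNQ1 CHO-K1 line | Incubation: 90 min dye loading and 20 min compound exposure, both at room temperature | Measure: Ratio B score | Medium: Assay buffer for compound exposure, DMSO matched across wells | Compound dosing: Single-concentration screen | Probe or stimulus: K+/Tl+ depolarizing stimulus | Measured by: Kinetic FluxOR fluorescence, 10 s baseline plus 110 s post-stimulus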
RGS4 pot: RGS4 potentiation or activation; HEK293 M3R/inducible RGS4, carbachol calcium flux Fluo4; active compounds read low; B-score at 10 µM; hit rate 0.92% among 310,000; AID 463111;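 active = B-score of the integrated calcium signal more than 4 SD below the library mean, with starting fluorescence not abnormally high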;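 also: negative B-score means reduced calcium response which marks RGS4 activation or potentiation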
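System – HEK293 FlpIn-TREx cells, stable M3R, doxycycline-inducible RGS4 · Reagent – ECmax carbachol challenge · Times – compound preincubation 20 min at room temperature before agonist · Technique – Fluo4 fluorescence kinetic imaging of calcium · Measure – B score of integrated Fluo4 ratio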
GSK3 alpha inh: blocks human GSK-3 alpha kinase; ADP-Glo luminescence, 60 min; inhibition, % at 10 µM; hit rate 0.1% among 320,000;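 in the data active = inhibition above about 50%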;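 also: GST-tagged GSK-3 alpha with peptide substrate and 25 µM ATP; 0% = DMSO neutral wells and 100% = GW8510 positive control wells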
KCNQ1 inh: blocks the human KCNQ1 potassium channel; B-score at 10 µM; hit rate 1.3% among 310,000; CHO-K1 KCNQ1, FluxOR thallium flux fluorescence; active compounds read high;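 active = compounds whose thallium flux B-score, printed positive for inhibition, exceeds three library SD while starting fluorescence stays within three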;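 also: channel opened by potassium depolarization with thallium stimulus after 20 min compound exposure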
KCNK9 inh: human KCNK9 channel inhibition; Q9NPC2; HEK293 KCNK9, FluxOR thallium flux fluorescence; active compounds read low; B-score at 10 µM; hit rate 1.2% among 310,000;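 active = ratio B-score over 3 SD below the library mean, with starting fluorescence within 5 SD of its mean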;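 also: negative B-score means less thallium flux so channel inhibition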
Numbers without * were called inactive; i = inactive; x = no result given; & = joins results of further samples.

SMILES | GSK3beta inhib | DYRK1A inh | PolyA inhibitor | KCNK3 inh | RGS4 block | KCNQ1 act | RGS4 pot | GSK3 alpha inh | KCNQ1 inh | KCNK9 inh
Cc1ccnc(NC(=O)CCC(=O)N(CC(=O)NC(C)(C)C)c2ccc3c(c2)OCO3)c1 | -3.5 | -1.5 | i | i | i | i | i | 5.0 | i | i
O=C1OCC(c2ccccc2)=C1c1ccccc1 | -2.4 | 0.9 | i | i | i | i | i | 0.6 | i | i
CC(C)[N+]1(C)[C@@H]2CC[C@H]1CC(OC(=O)C(CO)c1ccccc1)C2 (some centres not stated) | -1.3 | -4.1&-2.1&8.2 | i | i | i | 22* | i | -3.5&-3.1&-1.6 | i | i
Cc1nc2n(c(=O)c1CCN1CCC(c3noc4cc(F)ccc34)CC1)CCCC2 | -0.5 | -5.6 | i | i | i | i | i | 2.6 | i | i
COCCOC(=O)C1=C(C)NC(C)=C(C(=O)OC(C)C)C1c1cccc([N+](=O)[O-])c1 (configuration not stated) | 2.8 | 20.7 | i | i | i | i | i | -1.9 | i | i
CN(C)CC[C@@H](c1ccc(Cl)cc1)c1ccccn1 | 1.0 | 4.8 | i | i | i | i | -12.6* | 0.3 | i | i
Cc1cccc(C)c1NC(=O)C(C)N (configuration not stated) | 4.0 | x | i | x | i | i | i | -1.2 | i | i
CCOC(=O)c1ccc(NC(=O)CSc2nc3c(c(=O)n2CC)SC(C)C3)cc1 (configuration not stated) | -2.2 | 5.0 | i | i | i | i | i | -2.8 | i | -6.74*
CC1CCc2c(nc3ncnn3c2Nc2ccc(OC(F)(F)F)cc2)C1 (configuration not stated) | 1.8 | 3.8 | i | i | i | i | i | 3.3 | i | i
O=C(C(Cc1ccccc1)N1C(=O)C2C3C=CC(C3)C2C1=O)N1CCCCCC1 (configuration not stated) | 0.4 | 4.0 | i | i | i | i | i | -0.1 | i | i
Cc1ccc2nc(-c3ccccc3)cc(C(=O)NCC3CCCO3)c2c1 (configuration not stated) | 5.2 | x | i | i | i | i | i | -1.9 | i | i
OCCN1CCN(CCCN2c3ccccc3Sc3ccc(C(F)(F)F)cc32)CC1 | 0.5 | 0.6 | i | i | i | i | i | -1.3 | i | i
COc1cc2nc(N(C)CCCNC(=O)C3CCCO3)nc(N)c2cc1OC (configuration not stated) | 2.3 | x | i | x | i | i | i | 1.4 | i | i
OC(c1cc(C(F)(F)F)nc2c(C(F)(F)F)cccc12)C1CCCCN1 (configuration not stated) | x | 14.4 | x | i | x | x | x | 16.2 | x | x
O=C(CNC(=S)N(CCCN1CCOCC1)Cc1cccs1)NCc1ccccc1 | -0.7 | -1.9 | i | i | i | i | i | 7.7 | i | i
CN1CCC[C@H]1c1cccnc1 | 0.2 | -0.9&-6.5 | i | i | i | i | i | -3.9&-1.6 | i | i
CCN1CCN(C(=O)CS(=O)Cc2nc(-c3ccc(OC)cc3)oc2C)CC1 (configuration not stated) | -2.9 | -0.6 | i | i | i | i | i | -3.0 | i | i
COc1cccc(N=CC=C2OC(C)(C)C(C)(C)O2)c1 | -2.0 | -3.5 | i | i | i | i | i | -4.8 | i | i
Cc1ccc(O)c([C@H](CCN(C(C)C)C(C)C)c2ccccc2)c1 | -0.2&1.7 | 1.4&-0.6 | i | i | i | i | i | -2.5&-2.2 | i | i
CC(=O)[C@H]1CC[C@H]2[C@@H]3CC=C4C[C@@H](O)CC[C@]4(C)[C@H]3CC[C@]12C | x | -0.4 | x | i | x | x | x | 0.2 | x | x
CCc1ccc(Oc2coc3cc(OCC(=O)Nc4cc(C)ccc4C)ccc3c2=O)cc1 | 2.3 | -2.6 | i | i | i | i | i | 0.7 | i | i
Nc1[nH]c(=O)ncc1F | 1.9 | -0.1 | i | i | i | i | i | -5.1 | i | i
COc1ccc(C2CC(=O)c3cnc(NC(=O)c4cccc(OC)c4)nc3C2)cc1 (configuration not stated) | -1.0 | -4.0 | x | i | i | i | i | -1.4 | i | i
CCCc1cc(C(=O)N2CCCC(C(=O)c3ccc(Cl)cc3)C2)n(C)n1 (configuration not stated) | 0.9 | 2.5 | i | i | i | i | i | -1.6 | i | i
CCN1CCN(C(=O)NCc2ccccc2)CC1 | 3.4 | 5.1 | i | i | i | i | i | -0.3 | i | i
(continued)
SMILES | GSK3beta inhib | DYRK1A inh | PolyA inhibitor | KCNK3 inh | RGS4 block | KCNQ1 act | RGS4 pot | GSK3 alpha inh | KCNQ1 inh | KCNK9 inh
CC1(C)N=C(SCC(=O)Nc2ccccc2)C(c2ccc(Cl)cc2)=N1 | -2.7 | -4.7 | i | i | i | i | i | -5.4 | i | i
CCOC(=O)Nc1ccc2c(c1)N(C(=O)CN(C)C)c1ccccc1CC2 | -1.2 | 7.5 | i | i | i | i | i | 6.9 | i | i
COc1cccc(NC(=O)N(C2CCCCC2)C(C)c2cccs2)c1 (configuration not stated) | 4.3 | -2.9 | x | i | i | i | i | 0.6 | i | i
CC(C)(C)NC(=O)CON=C1c2ccccc2-c2ccccc21 | -1.5 | 13.4 | i | i | i | i | i | -3.7 | i | i
Cn1c(CCN2CCCCC2)nc2cc(NS(=O)(=O)c3ccccc3)ccc21 | 0.3 | 3.5 | i | i | i | i | i | 0.9 | i | i
O=C(Cn1cnc2c(cnn2-c2ccccc2)c1=O)Nc1ccc(S(=O)(=O)N2CCOCC2)cc1 | -1.6 | 5.6 | i | i | i | i | i | 1.8 | i | i
NCCc1cnc[nH]1 | 0.4&3.0 | 14.4&2.8 | i | i | i | i | i | -5.1 | i | i
CCCNC(=O)c1ccccc1NC(=O)COc1ccc(OC)cc1 | -2.9 | -14.1 | i | i | i | i | i | -1.4 | i | i
CC[C@H]1OC(=O)[C@H](C)[C@@H](O[C@H]2C[C@@](C)(OC)[C@@H](O)[C@H](C)O2)[C@H](C)[C@@H](O[C@@H]2O[C@H](C)C[C@H](N(C)C)[C@H]2O)[C@](C)(O)C[C@@H](C)C(=O)[C@H](C)[C@@H](O)[C@]1(C)O | 3.3 | 5.9 | i | i | i | i | i | -9.5 | i | i

Structural class, the entries above with an aryl methoxy group.
SMILES | GSK3beta inhib | DYRK1A inh | PolyA inhibitor | KCNK3 inh | RGS4 block | KCNQ1 act | RGS4 pot | GSK3 alpha inh | KCNQ1 inh | KCNK9 inh
COc1cc2nc(N(C)CCCNC(=O)C3CCCO3)nc(N)c2cc1OC (configuration not stated) | 2.3 | x | i | x | i | i | i | 1.4 | i | i
CCN1CCN(C(=O)CS(=O)Cc2nc(-c3ccc(OC)cc3)oc2C)CC1 (configuration not stated) | -2.9 | -0.6 | i | i | i | i | i | -3.0 | i | i
COc1cccc(N=CC=C2OC(C)(C)C(C)(C)O2)c1 | -2.0 | -3.5 | i | i | i | i | i | -4.8 | i | i
COc1ccc(C2CC(=O)c3cnc(NC(=O)c4cccc(OC)c4)nc3C2)cc1 (configuration not stated) | -1.0 | -4.0 | x | i | i | i | i | -1.4 | i | i
COc1cccc(NC(=O)N(C2CCCCC2)C(C)c2cccs2)c1 (configuration not stated) | 4.3 | -2.9 | x | i | i | i | i | 0.6 | i | i
CCCNC(=O)c1ccccc1NC(=O)COc1ccc(OC)cc1 | -2.9 | -14.1 | i | i | i | i | i | -1.4 | i | i

A portion of the library (hit frequency here may not be typical).
